Source: PubChem BioAssay (several laboratories)
MT1-MMP reporter: inhibitors of MT1-MMP promoter transcription, cell-based, luciferase reporter, luminescence (AID 618) | MT1-MMP promoter luciferase reporter cells, luminescence | actives 0.62% (n = 87,000) | calls from a first round at 10 µM; hits with a dose series show EC50 in µM;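 active = over half of the reporter light lost at 10 µM or EC50 under 50 µM; inactive = the rest and hits that failed the dose series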;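 note: actives suppress MT1-MMP promoter-driven transcription so potencies describe inhibitors; HT1080 fibrosarcoma cells; overnight exposure; toxic or luciferase-blocking compounds were not removed from the actives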
Hsc70 ATP site: Hsc70 inhibitors, probe displacement, primary screen, biochemical, fluorescence polarization (AID 568) | Hsc70 fluorescence polarization, probe displacement; higher % means a stronger effect; strong numbers were not always called active | Heat shock cognate 71 kDa protein (Homo sapiens) | displacement, % at 20 µM, or IC50 in µM where a hit was titrated | 83,000 tested, under 10 active;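 active = displacement above 50% without optical interference and an IC50 on retest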;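 note: ATPase domain with a fluorescein-tagged ATP probe; 0% = vehicle and 100% = excess ADP; read after one hour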
WNV protease inh: inhibitors of WNV NS2B-NS3 protease, primary screen, biochemical, fluorogenic substrate; fluorogenic substrate Ex360/Em465; stronger effect = lower value; z-score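 (tested at a level between 10 and 100 µM)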; actives 0.18% (n = 65,000);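 active = z-score at -3 or under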;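 note: score is relative to mean and spread of the compound wells of a plate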
Target sequence (P06935 1371-1501 limits assumed): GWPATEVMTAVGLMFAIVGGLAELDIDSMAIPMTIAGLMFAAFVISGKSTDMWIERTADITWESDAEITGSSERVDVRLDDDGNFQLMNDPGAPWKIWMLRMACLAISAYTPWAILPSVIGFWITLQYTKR
Target sequence (P06935 1502-1679 limits assumed): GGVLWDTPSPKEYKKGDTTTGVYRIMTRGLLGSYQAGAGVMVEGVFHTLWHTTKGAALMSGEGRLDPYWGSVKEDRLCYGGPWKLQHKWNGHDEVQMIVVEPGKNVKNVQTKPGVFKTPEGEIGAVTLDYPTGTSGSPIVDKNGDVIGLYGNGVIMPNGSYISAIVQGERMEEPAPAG
* marks the source's active call; other numbers are inactive results; i = inactive; / = not tested or not shown.

molecule	MT1-MMP reporter	Hsc70 ATP site	WNV protease inh
CCOC(=O)COn1c(=O)c[n+]([O-])c2ccccc21	i	-4.3%	-0.5
COCCN(C(=O)c1csnn1)C(C(=O)NC1CCCCC1)c1sccc1C (stereo unspecified)	i	1.1%	0.38
CCOC(=O)C1CCCN(C(=O)CCNS(=O)(=O)c2ccc3c(c2)CCC(=O)N3)C1 (stereo unspecified)	i	-0.2%	-0.72
COc1ccc(C(c2nnnn2Cc2ccccc2)N2CCN(C(=O)c3ccco3)CC2)cc1OC (stereo unspecified)	i	1.0%	-0.74
NC(=O)CSc1nc(N)c2c3c(sc2n1)CCCCC3	i	-1.0%	0.41
CCN1CCN(C(=O)c2nn(-c3ccc(C)cc3)c(=O)c3c2c2ccccc2n3C)CC1	i	0.0%	-0.43
CCOC(=O)n1c(SCC(N)=O)nc2ccccc21	i	-0.3%	/
COC(=O)c1cc2ccsc2n1Cc1nc(-c2ccc(OC)cc2)oc1C	i	-9.0%	-0.87
CCN(CC)C(=O)CN(c1cc(Cl)ccc1OC)S(C)(=O)=O	i	-1.9%	-0.67
Cc1ccnn1CC(=O)N/N=C/c1ccco1	i	0.6%	/
CCCOc1ccc2[nH]cc(C(=O)O)c(=O)c2c1	i	-2.6%	-1.07
Cc1cc(C)c2c(=O)[nH]c(SCC(=O)Nc3ccc(N(C)C)cc3)nc2n1	i	-4.6%	/
Cc1nn2c(CN(C(=O)c3ccco3)c3ccccc3)nnc2c2ccccc12	i	-4.8%	0.37
Cc1ccn(CC(=O)O)c(=O)c1	i	5.9%	-0.98
CSc1nnc2c(n1)OC(c1cn(C)c3ccccc13)N(C(C)=O)c1ccccc1-2 (stereo unspecified)	i	8.5%	-1.32
COC(=O)c1c(NC(=O)CSc2nnnn2-c2ccccc2)sc2c1CCC(C)C2 (stereo unspecified)	i	-6.3%	0.5
CCC1(C)Cc2c(sc3nc4n(c(=O)c23)CCCS4)CO1 (stereo unspecified)	i	2.1%	1.17
CCN(Cc1ccccc1)C(=O)c1ccccc1C	i	-1.7%	-3.46*
O=C1c2ccccc2C(Nc2ccc(S(=O)(=O)N3CCOCC3)cc2)N1c1cccnc1 (stereo unspecified)	i	-2.3%	-0.8
O=S(=O)(c1cccc(Cl)c1Cl)N1CCCCC1	i	-0.5%	-0.6

The listing continues:
molecule	MT1-MMP reporter	Hsc70 ATP site	WNV protease inh
CCCCSc1nnc([C@H](C)NC(=O)OC(C)(C)C)o1	i	5.7%	0.23
COc1cc(NC(=O)CN(c2ccc(C)cc2)S(=O)(=O)c2c(C)nn(C)c2C)cc(OC)c1	i	-8.0%	-0.86
O=C1CS/C(=C\S(=O)(=O)c2ccc(Cl)cc2)N1	i	3.5%	-1.52
Cc1ccnc(NS(=O)(=O)c2cccc3nsnc23)c1	i	1.0%	1.13
Cc1ccc2cc(C)c(NCCO)nc2c1	i	3.1%	0.25
O=C1CC(Cc2ccc(Cl)cc2)C(=O)N1c1ccncc1 (stereo unspecified)	i	-0.4%	/
CCCn1c(N)c(C(=O)CSc2nnnn2-c2ccc(O)cc2)c(=O)n(C)c1=O	i	6.3%	/
C=C(C)CSc1nnc(-c2ccc(C)cc2)n1N	i	1.2%	/
O=C1CC(SC(=NCc2ccc3c(c2)OCO3)Nc2ccccc2)C(=O)N1 (stereo unspecified)	i	3.4%	1.45
Cc1ccnc(NC(=O)COC(=O)C2COc3ccccc3O2)n1 (stereo unspecified)	i	0.1%	-0.96
CC(=O)c1c(C)nc2ccc(Cl)cn12	i	2.3%	/
O=C(NCc1ccccc1)c1ccc(=O)[nH]n1	i	-3.0%	-0.01
CCC(c1nc2ccccc2c(=O)n1CCCn1ccnc1)N1C(=O)c2ccccc2C1=O (stereo unspecified)	i	-4.8%	0.36
Cc1ccc(Cn2c(SCCN3CCCCC3)nc3c2c(=O)[nH]c(=O)n3C)cc1	i	6.2%	0.49
Cc1cccc(-n2c(N)c(C(=O)N3CCN(C)CC3)sc2=S)c1	i	-1.9%	-0.09
Cc1cccc(Nc2nn3c(=O)c4ccccc4nc3s2)c1	i	0.3%	-0.36
Nc1nnc(CC(=O)N2CCCCC2)s1	i	6.9%	-0.51
COC(=O)c1sccc1N/N=C(\C)c1ccc(F)c(Cl)c1	i	-2.6%	/
CCC1Oc2ccc(C)cc2N(CC(=O)NCCN2C(C)CCCC2C)C1=O (stereo unspecified)	i	-3.0%	0.01
CCOc1ccc(N(CC(=O)NC2CCCCC2)C(=O)CNC(=O)c2ccco2)cc1	i	-4.4%	/

(next part)
molecule	MT1-MMP reporter	Hsc70 ATP site	WNV protease inh
CC(C)n1cc(/C=C(\C#N)S(=O)(=O)c2ccccc2)c2ccccc21	i	-2.0%	0.06
CCOC(=O)c1[nH]c(C)c(C(=O)NCc2ccccn2)c1C	i	-6.3%	1
Cc1ccc(C)c(NC(=O)c2nnn(Cc3ccccc3)c2N)c1	i	6.8%	-1.39
COc1cccc(C2c3c(oc4ccccc4c3=O)C(=O)N2CCCN2CCOCC2)c1OC (stereo unspecified)	i	4.7%	0.14
CCOC(=O)c1oc2cc(O)ccc2c(=O)c1-c1ccc(OC)cc1	i	-0.3%	/
CCCC(=O)Nc1nnc(CCN2CCCCC2)s1	i	4.5%	/
Cc1cc(-c2nc3ccccc3o2)c2ccccc2n1	i	-0.2%	-0.09
Cc1ccc(C(=O)Cn2c(N3CCOCC3)nc3c2c(=O)n(C)c(=O)n3C)cc1	i	4.2%	0.33
COc1cccc(NC(=O)COc2ccccc2C(N)=O)c1	i	6.9%	0.39
CCOC(=O)c1[nH]c2ccc(OC)cc2c1NC(=O)CN1CCC2(CC1)OCCO2	i	0.5%	0.25
Nn1c(-c2ccccc2Cl)nnc1-c1ccccc1Cl	i	3.0%	/
COc1ccc(CC(C(=O)Nc2cccc(F)c2)c2nn[nH]n2)c(OC)c1 (stereo unspecified)	i	-1.2%	-0.87
Fc1ccc(-c2cc3nc(-c4ccccc4)cc(N4CCN(CCN5CCOCC5)CC4)n3n2)cc1	i	4.9%	-1.59
O=C(CCNS(=O)(=O)c1ccc2c(c1)CCC(=O)N2)NCc1cccnc1	i	-3.4%	0.82
COc1cccc(C2c3c(oc4ccccc4c3=O)C(=O)N2CCCN(C)C)c1OC (stereo unspecified)	i	-1.1%	1.48
CCN(CC)S(=O)(=O)c1cccc(C(=O)Nc2ccc(C#N)cc2)c1	i	0.8%	0.65
Cn1c(Cn2c(=O)sc3ccccc32)nnc1SCC(=O)Nc1ccc2c(c1)OCO2	i	-2.0%	-0.31
O=C(CCCc1cccs1)N1CCN(S(=O)(=O)c2ccccc2Br)CC1	i	-5.7%	0.23
CCCS(=O)(=O)N1CCCC(C(=O)NCCCN2CCCC2=O)C1 (stereo unspecified)	i	-1.3%	-0.63
Nc1ccc(NC(=O)c2cccs2)c(Cl)c1	i	-2.3%	2.05

(list continues)
molecule	MT1-MMP reporter	Hsc70 ATP site	WNV protease inh
O=c1[nH]cnc2scc(-c3ccsc3)c12	i	0.2%	2.12
O=C(O)C1C2CCC(C2)C1C(=O)NCc1ccccn1 (stereo unspecified)	i	3.5%	-0.14
CCCCNC(=O)c1cc2n(n1)C(C(F)(F)F)CC(c1ccccc1)N2 (stereo unspecified)	i	-5.1%	0.48
CCOC(=O)C(=O)Nc1nnc(CCc2ccccc2)s1	i	-9.5%	/
CCC(=O)Nc1nc2ccccc2n1Cc1ccccc1	i	0.8%	0.7
CCOC(=O)c1c(-c2ccccc2)csc1NC(=O)CSc1nnnn1C	i	2.4%	0.19
Cc1ccc(Cl)cc1NC(=O)CSc1nnc(C)n1-c1ccccc1	i	-3.7%	-0.75
N#C/C(=C/c1ccc(N2CCCCC2)o1)c1cccc(F)c1	i	-68.7%	/
CCOc1ccc(-n2c(Cc3cc(=O)[nH]c(=O)[nH]3)nnc2SC(C)C(=O)OC)cc1 (stereo unspecified)	i	5.1%	0.39
CC(=O)Nc1nnc(-c2ccc3c(c2)CCCC3)o1	i	-0.3%	-0.07
O=c1c2cnn(-c3ccc(F)cc3)c2ncn1Cc1ccc(F)cc1	i	0.4%	/
COCCNC(=O)c1ccc(CS(=O)(=O)c2ccccc2)o1	i	5.0%	0.16
Cc1cc(C)n(CC(O)Cn2ccc3ccccc32)n1 (stereo unspecified)	i	1.6%	/
O=S(=O)(NCc1cccnc1)c1ccccc1	i	1.3%	/
Cc1ccc(S(=O)(=O)C2(C(=O)NC3CCCC3)CC2)cc1	i	-2.4%	-0.89
COc1ccc(C(N)CCc2ccco2)cc1 (stereo unspecified)	i	3.1%	0.3
O=C(CCn1c(=O)oc2ccccc21)n1c(=O)oc2ccccc21	i	0.2%	0.69
Cc1c(C(=O)OCC(C)(C)CN(C)C)oc2ccccc12	i	1.2%	0.00678
O=C(CN1CCN(c2ccc(F)cc2)CC1)NCC1CCCO1 (stereo unspecified)	i	5.7%	-0.36
COc1ccc(C2CC(c3ccccc3)Nc3nc(N)nn32)cc1 (stereo unspecified)	i	2.1%	-0.28

Other records:
molecule	MT1-MMP reporter	Hsc70 ATP site	WNV protease inh
O=C(Nc1nccs1)c1cc(N2CCOCC2)nc2ccccc12	i	5.0%	-0.8
Cc1ccc(NC(=O)CC2Oc3ccccc3NC2=O)c(C)c1 (stereo unspecified)	i	1.0%	0.44
Cc1nc(NCCCn2ccnc2)c2ccccc2n1	i	-4.2%	-0.88
Cc1ncoc1C(=O)Nc1ccc2c(c1)OCCO2	i	1.2%	-0.79
CCOC(=O)C1CCN(C(=O)Cc2cccs2)CC1	i	0.3%	-1.24
COc1ccc(S(=O)(=O)N(CC(=O)N2CCN(C)CC2)c2ccc(C)cc2)cc1OC	i	-2.1%	-0.1
COc1cc(C(=O)Nc2ccc(-c3nnc(-c4ccco4)o3)cc2)cc(OC)c1OC	i	-1.1%	/
CCC(c1nnnn1Cc1ccco1)N1CCN(c2cc(Cl)ccc2C)CC1 (stereo unspecified)	i	-1.3%	0.32
COC(=O)c1ccccc1NC(=O)c1ccccc1N(C)S(C)(=O)=O	i	0.4%	0.82
Cc1cccc2sc(NC(=O)C3CCCO3)nc12 (stereo unspecified)	i	-11.1%	-0.13
CCOc1ccccc1CNC(=O)CCN1C(=O)COc2ccccc21	i	-7.0%	-0.44
Cc1ccc(-n2nc3c(c2NC(=O)c2ccccc2Br)CS(=O)C3)cc1 (stereo unspecified)	i	2.5%	-1.65
Cc1nn(C(C)C(=O)N2CCN(c3ccccn3)CC2)c(=O)c2cc3occc3n12 (stereo unspecified)	i	-1.0%	-0.02
O=C(Cc1ccc(Cl)cc1)Nc1ccc(-c2nnc(-c3ccco3)o2)cc1	i	-4.4%	-0.16
O=C(OCn1cncn1)c1ccc(Cl)cc1Cl	i	-3.2%	0.81
CCOC(=O)C1CCCN(CCC(=O)Nc2ccc(C)cc2)C1 (stereo unspecified)	i	-2.2%	/
COC(=O)c1cc2nc(-c3ccccc3)cc(C(F)(F)F)n2n1	i	6.1%	/
CCOc1ccc(OCC)c(N=c2oc3c(C)ncc(CO)c3cc2C(N)=O)c1	i	-2.8%	-0.39
Cc1cc(=O)[nH]c(SCCOc2cccc(C(F)(F)F)c2)n1	i	4.6%	-0.6
CN(C)/C=N/c1c(C#N)cnn1-c1nc2ccccc2s1	i	5.6%	-1.38

Following part:
molecule	MT1-MMP reporter	Hsc70 ATP site	WNV protease inh
Cc1ccc2c(c1)C=CC(C)N2C(=O)c1ccccc1 (stereo unspecified)	i	2.5%	/
Cc1cccc(NC(=O)Nc2cc(C)on2)c1	i	4.0%	-0.4
O=C(c1ccc2c(c1)OCO2)N1CCN(c2ccc(F)cc2)CC1	i	3.9%	1.07
Cc1ccc(OCCN2CCN(C(=O)CCC(=O)Nc3nnc(C)s3)CC2)cc1	i	-3.5%	-1.53
COc1ccc2nc(C)cc(Nc3ccc(N4CCOCC4)cc3)c2c1	i	-4.8%	-0.00504
CCCCn1c(SCC(=O)Nc2nnc(CC)s2)nc2ccccc2c1=O	i	0.2%	-0.69
CC1(C)Cc2ccccc2-c2n[nH]c(=S)n21	i	1.6%	-0.03
O=S(=O)(c1ccccc1)C1(S(=O)(=O)c2ccccc2)CCCC1	i	2.6%	1.98
CN(C)S(=O)(=O)c1cccc(CSc2cccc[n+]2[O-])c1	i	-3.8%	-0.53

Entries of single compounds as entered above. Values in the order: MT1-MMP reporter	Hsc70 ATP site	WNV protease inh
Listed for CCCCn1c(SCC(=O)Nc2nnc(CC)s2)nc2ccccc2c1=O → i	0.2%	-0.69
Listed for COc1ccc2nc(C)cc(Nc3ccc(N4CCOCC4)cc3)c2c1 → i	-4.8%	-0.00504
Listed for Cc1ccc(OCCN2CCN(C(=O)CCC(=O)Nc3nnc(C)s3)CC2)cc1 → i	-3.5%	-1.53
Listed for Cc1ccc2c(c1)C=CC(C)N2C(=O)c1ccccc1 (stereo unspecified) → i	2.5%	/
Listed for O=C(c1ccc2c(c1)OCO2)N1CCN(c2ccc(F)cc2)CC1 → i	3.9%	1.07
